High-throughput results deposited in PubChem BioAssay by ICCB-Longwood Screening Facility, Harvard Medical School.
GIV-Gai inh: inhibitors of GIV peptide binding to Galpha-i3, primary screen, biochemical, fluorescence polarization, FITC-GIV GBA peptide, rat Galphai3; AID 1224905, 2016; 210,000 compounds, 0.42% hits; 90 min; hits give low values; scaled: aluminum fluoride 0%, vehicle 100%; percent of control (FP), % (concentration not given with the values);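 active = replicate mean at 85% of control or lower, very high polarization wells dropped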;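 also: wells of about 15 µL received 100 nL stock; the first replicate is given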
Target sequence (P08753 whole entry, looked up): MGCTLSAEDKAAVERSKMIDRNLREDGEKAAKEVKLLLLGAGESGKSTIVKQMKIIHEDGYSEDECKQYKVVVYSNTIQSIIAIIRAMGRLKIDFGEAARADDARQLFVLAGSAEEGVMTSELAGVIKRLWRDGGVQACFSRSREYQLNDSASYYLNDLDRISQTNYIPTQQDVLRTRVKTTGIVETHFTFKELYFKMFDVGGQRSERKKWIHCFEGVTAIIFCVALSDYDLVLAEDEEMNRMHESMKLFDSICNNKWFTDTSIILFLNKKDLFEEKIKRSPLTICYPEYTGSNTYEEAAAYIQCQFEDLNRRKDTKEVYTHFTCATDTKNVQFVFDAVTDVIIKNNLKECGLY
Numbers without * were called inactive. Not all compounds are listed, so the mix of outcomes need not match the whole.

SMILES	GIV-Gai inh
CCOC(=O)N1CCN(C(=O)CN(c2ccc(Cl)cc2)S(=O)(=O)c2ccc(OC)cc2)CC1	111
CCOc1ccccc1C1C2=C(CC(C)(C)CC2=O)Nc2ncnn21 (centres undefined)	96
CCOc1ccc(NC(=O)CSc2nc3[nH]ncc3c(=O)n2-c2ccc(Br)cc2)cc1	100
CCOC(=O)C1=C(N)N(c2ccc([N+](=O)[O-])cc2)C2=C(C(=O)CCC2)C1c1cc(OC)c(OC)c(OC)c1 (centres undefined)	115
Cc1ccc(C2CC(=O)Nc3c2c(C)nn3-c2nncc(-c3ccc(F)cc3)n2)cc1C (centres undefined)	97
CCOC(=O)C1=C(C)N=c2s/c(=C\c3ccc(N4CCCCC4)o3)c(=O)n2C1c1cccc(OC)c1 (centres undefined)	106
Cc1nn(-c2nc3ccccc3s2)c2c1C(c1c(F)cccc1F)CC(=O)N2 (centres undefined)	105
COc1ccc(C2C(C(=O)OC(C)C)=C(C)N=c3s/c(=C\c4ccc(Br)o4)c(=O)n32)cc1 (centres undefined)	112
CCC(C)c1ccc(OCCOc2c(Cl)cc(C=C3C(=O)NC(=O)NC3=O)cc2OC)cc1 (centres undefined)	107
O=C(Nc1cc(F)cc(F)c1)C1CC(=O)N(c2ccc3c(c2)CCN3C(=O)C2CC2)C1 (centres undefined)	98
CCOCCCNC(=O)C(C)C1CCN(S(=O)(=O)c2cccs2)CC1 (centres undefined)	113
CN=C1S/C(=C\c2ccc(OCc3ccccc3F)cc2)C(=O)N1C	105
COc1ccc(OC)c(CNC(=O)c2ccc(-c3cccnc3)cc2)c1	100
O=C(NCCC1=CCCCC1)c1ccc(-c2nc(-c3ccccc3)no2)cc1	102
CC1CN(S(=O)(=O)c2cc3c(cc2Cl)Oc2ccccc2NC3=O)CC(C)O1 (centres undefined)	102
Cc1c(NC(=O)c2cnn3c(C(F)(F)F)cc(-c4ccc(Br)cc4)nc23)c(=O)n(-c2ccccc2)n1C	102
COc1ccc(-n2c(SCC(=O)Nc3nccs3)nc3c(sc(=S)n3-c3ccccc3)c2=O)cc1OC	111
CCN(CC)CCCNC(=O)c1cc(-c2ccncc2)nc2ccc(S(=O)(=O)N3CCOCC3)cc12	109
COc1cccc2cc(C(=O)Nc3ccc(Cl)cc3)c(=Nc3ccc(C(=O)O)cc3)oc12	114
COc1ccc(/C=C2\SC(=N)N(c3ccc(F)cc3)C2=O)cc1	105
Cc1sc(-c2cc(C(F)(F)F)on2)cc1S(=O)(=O)N1CCN(c2ccc(Cl)cc2)CC1	103
Cc1ncc2c(N3CCC(C(N)=O)(N4CCCCC4)CC3)nccn12	107
CCOC(=O)c1ccc(NC2=NC(=S)N(c3ccccc3Cl)C23CCCCC3)cc1	108
O=C1CCC(=O)N1CC(O)Cn1c2ccc(Cl)cc2c2cc(Cl)ccc21 (centres undefined)	100
O=C(CN1C2=NCCCN2c2ccccc21)c1ccc([N+](=O)[O-])cc1	110
Further records.
SMILES	GIV-Gai inh
CCC(=O)N1CCc2cc(-c3ccc(C(=O)N4CCN(c5ccccn5)CC4)cc3)ccc21	99
CC(C)NC(=O)Cn1cnn2cc3c(c2c1=O)CCCC3	99
Cc1noc(C)c1C1CCCN1S(=O)(=O)c1ccc(F)cc1 (centres undefined)	101
N#CC1=C(SCC(=O)c2cc3ccccc3oc2=O)NC(=O)C(C#N)C12CCCCC2 (centres undefined)	118
CS(=O)(=O)Nc1ccc(C2(C(=O)N3CCC4(CC3)OCCO4)CCCCC2)cc1	101
Cc1nc(CCNC(=O)[C@H]2CCCN2S(=O)(=O)c2ccc(Cl)s2)cs1	106
O=C(CCCn1c(=S)[nH]c2ccc(Br)cc2c1=O)N1CCN(c2ccc(F)cc2)CC1	109
COc1cccc(-c2nc(C)c(-c3ccc(SCc4ccccn4)nn3)s2)c1	97
O=C(Cn1ccc2c(SCc3ccc(F)cc3)nccc21)NCc1ccc(N2CCOCC2)cc1	105
CCOC(=O)c1c(S(=O)(=O)N2CCC(C(=O)NCc3ccc4c(c3)OCO4)CC2)c(C)n(C)c1C	105
CCOC(=O)C1=C(C)N=c2s/c(=C/c3cccc([N+](=O)[O-])c3O)c(=O)n2C1c1cc(OC)c(OC)c(OC)c1 (centres undefined)	108
Cc1noc(C)c1S(=O)(=O)N1CCCn2nc(-c3cccs3)cc2C1	103
CCc1ccc(-c2csc(Cc3nc(-c4ccc5c(c4)OCO5)no3)n2)cc1	97
CCOc1ccc(-c2csc(Cc3nc(-c4ccccc4C)no3)n2)cc1	108
Cc1nc(-c2cc(S(=O)(=O)N(C)C3CCCCC3)cn2C)sc1C(=O)N1CCCC1	101
COc1cc(NC(=O)Cn2cc(-c3nc(-c4ccc(C)cc4)no3)ccc2=O)cc(OC)c1	98
N#CC1=CN(c2ccc(Cl)cc2Cl)c2cc(Cl)ccc2S1(=O)=O	114
Cn1nnc2c(NCCSc3c[nH]c4ccccc34)ncnc21	102
CCCCC1(CC(=O)OCC)C(=O)N(c2ccccc2)N(c2ccccc2)C1=O	110
COc1ccc(N2CC(C(=O)NCc3nnnn3-c3ccc(OC)cc3)CC2=O)cc1 (centres undefined)	104
CCOC(=O)C(CC)SC1=NS(=O)(=O)c2ccccc2N1 (centres undefined)	108
O=C(CN(c1cccc(C(F)(F)F)c1)S(=O)(=O)c1ccccc1)N1CCN(c2ccccc2)CC1	109
O=C(NC1CCCCC1)N1CCN(Cc2nc3cccnc3n2-c2ccccc2)CC1	104
CC(=O)Nc1ccc2nc(N3CCC(C(=O)Nc4ccc5c(c4)OCCO5)CC3)cc(C)c2c1	96
CCCCN(C)c1ccc2nnc(CCc3nc(-c4cccc(Br)c4)no3)n2n1	104

Quoted from the results shown for reference:
SMILES	GIV-Gai inh
CC(=O)Nc1ccc2nc(N3CCC(C(=O)Nc4ccc5c(c4)OCCO5)CC3)cc(C)c2c1	96
CCCCN(C)c1ccc2nnc(CCc3nc(-c4cccc(Br)c4)no3)n2n1	104

Additional compounds follow.
SMILES	GIV-Gai inh
CCOC(=O)c1sc2nc(SCC#N)n(Cc3ccc(F)cc3)c(=O)c2c1C	109
COCc1cnc2c(c1SC)c(=O)n(C)c(=O)n2C	97
Fc1ccc(-c2nc3ccccc3nc2-c2ccccc2)cc1	109
CC(C)(C)C1=CC2(C=C(C(C)(C)C)C1=O)Nc1cc([N+](=O)[O-])ccc1OC2c1ccccc1 (centres undefined)	113
O=C(Cn1cnc2sc3c(c2c1=O)CCCC3)NCC(=O)N1CCN(c2ccccc2)CC1	117
O=C(c1ccccc1-c1ocnc1C(=O)N1CCN(c2ccc(Cl)cc2)CC1)N1CCCCC1	97
Cc1nc(N2CCN(C)CC2)c2c(C)c(C(=O)Nc3ccccc3Cl)sc2n1	103
CCSCCOC(=O)C1=C(C)NC2=C(C(=O)CC(c3cccs3)C2)C1c1coc2ccc(C)cc2c1=O (centres undefined)	100
O=S(=O)(c1cc(-c2nnc(C3CCC3)o2)co1)N1CCN(c2ccccc2F)CC1	102
Cc1ccc(O)c(C2N(Cc3ccccc3O)CCN2Cc2ccccc2O)c1	116
O=[N+]([O-])/C(C(Cl)=C(Cl)Cl)=C(/Sc1ccccc1)N1CCOCC1	107
Cc1ccccc1OCc1nc(-c2ccc(NC(=O)c3cccs3)cc2)no1	105
COc1ccc(OC)c(-c2csc(Nc3ccc(Br)cn3)n2)c1	109
COc1cccc(C(=O)N2CCCN(Cc3noc(-c4ccccc4)n3)CC2)c1	100
OC1(c2ccccc2)CN(c2ccccc2)C2=[N+]1CCCS2 (centres undefined)	100
COc1ccccc1N1CCN(S(=O)(=O)c2ccc(F)c(C(=O)Nc3cccc(Cl)c3C)c2)CC1	107
CC(=O)Nc1ccc2nc(N3CCC(C(=O)Nc4cccc(Cl)c4)CC3)cc(C)c2c1	105
Cc1cccc(NC(=O)C2CCCN(S(=O)(=O)Cc3ccc(F)cc3)C2)c1 (centres undefined)	103
Cc1ccc2[nH]cc(CCNC(=O)Cn3nc(C)c4nn(-c5ccccc5)c(C)c4c3=O)c2c1	101
CCOC(=O)c1ccc(Cn2c3ccc(Br)cc3c3nc4ccccc4nc32)o1	109
CC1CCN(c2nc(C(=O)NCCCOC(C)C)nc3c2cnn3C)CC1	105
CC(C)n1cnnc1C1CCCN(C(=O)c2cccs2)C1 (centres undefined)	102
COc1cc(OC)c(C2C=C(c3ccc(Cl)cc3)Nc3nc4ccccc4n32)cc1OC (centres undefined)	107
CC(C)CNC(=O)C1CCCN(C(=O)c2ccc(NS(=O)(=O)c3ccc(C(C)(C)C)cc3)cc2)C1 (centres undefined)	109
CN1C(=O)OC2(CCCCC2)C1(C)O (centres undefined)	106
New compounds follow:
SMILES	GIV-Gai inh
CCc1onc(C)c1C1CCCN1Cc1ccccc1OC(C)C (centres undefined)	104
Cc1cc(C)c2sc(NC(=O)c3ccc(S(=O)(=O)N(C)CC4CCCO4)cc3)nc2c1 (centres undefined)	93
CCCCc1nc(SCC(=O)NC2CCCCC2)n[nH]1	106
O=C(NC1CCCCC1)c1ccc(NC(=O)c2nsc3ccccc23)cc1	106
Cn1c(=O)n(CCC(=O)N2CCCC2)c(=O)c2cc(S(=O)(=O)NC(C)(C)C)ccc21	101
CC1CCN(S(=O)(=O)c2cccn(Cc3ccccc3F)c2=O)CC1	102
COc1cccc(C(=O)Nc2ccc(SCc3nnc(-c4ccccc4)o3)cc2)c1	100
O=C(NCC1CCN(Cc2cccc(Cl)c2)CC1)c1ccc2cccc(O)c2n1	113
Cc1nn(-c2nc3ccccc3o2)c2c1C(c1ccc(C(=O)O)cc1)CC(=O)N2 (centres undefined)	111
Cc1ccc(C2OC(=O)c3ccccc32)cc1 (centres undefined)	112
CCOc1ccc(C2CC(=O)Nc3c2cnn3-c2ccc3nncn3n2)cc1OC (centres undefined)	100
CCCCC(=O)Nc1ccc(N2CCCN(c3ccc(Cl)nn3)CC2)c(C(=O)O)c1	100
O=C(NCC1CCCO1)C1CCN(c2cnc(N3CCSCC3)nc2)CC1 (centres undefined)	103
Cc1cc(=O)n(CC(=O)N2CCc3ccccc32)c(-n2nc(C)cc2C)n1	108
Cn1nc(-c2nnc(-c3ccccc3)o2)c2c1CCN(S(=O)(=O)c1ccc3c(c1)CCC3)C2	108
CCCCOc1ccc(C(=O)NCCCCOc2ccc(C(C)(C)CC)cc2C(C)(C)CC)cc1	108
CCOC(=O)c1c(NC(=O)CSc2nnc(CNC(=O)COc3ccccc3)n2C)sc2c1CCC2	95
Cc1cc(N2CCN(C)CC2)n2nc(CN3CCCCC3C)nc2n1 (centres undefined)	105
Fc1ccc(CNC2=NCCNC23CCC(c2ccccc2)CC3)cc1 (centres undefined)	102
Cc1ccc(NC(=O)c2nnc(CNC(=O)Nc3cccc(C)c3)s2)cc1	108
COc1cc(NC(=O)Cn2cnc3c(sc4nc(C)cc(C)c43)c2=O)cc(OC)c1	98
CCC(CC)C(=O)N1c2ccc(C)cc2C(=C2SC(C(=O)OC)=C(C(=O)OC)S2)C(=S)C1(C)C	107
CCOC(=O)C(Sc1ncn[nH]1)c1ccccc1 (centres undefined)	107
Cc1cc(C2CCCN2C(=O)c2cc(C(C)C)on2)on1 (centres undefined)	101
COc1ccc(NC(=O)c2cc([N+](=O)[O-])ccc2N2CCCCC2)cc1	103

Arranged by count of non-hydrogen atoms (ascending): some entries from above
SMILES	GIV-Gai inh
Cc1ccc(C2OC(=O)c3ccccc32)cc1 (centres undefined)	112
CCOC(=O)C(Sc1ncn[nH]1)c1ccccc1 (centres undefined)	107
CCCCc1nc(SCC(=O)NC2CCCCC2)n[nH]1	106
Cc1cc(C2CCCN2C(=O)c2cc(C(C)C)on2)on1 (centres undefined)	101
CCc1onc(C)c1C1CCCN1Cc1ccccc1OC(C)C (centres undefined)	104
CC1CCN(S(=O)(=O)c2cccn(Cc3ccccc3F)c2=O)CC1	102
COc1ccc(NC(=O)c2cc([N+](=O)[O-])ccc2N2CCCCC2)cc1	103
O=C(NC1CCCCC1)c1ccc(NC(=O)c2nsc3ccccc23)cc1	106
Cc1nn(-c2nc3ccccc3o2)c2c1C(c1ccc(C(=O)O)cc1)CC(=O)N2 (centres undefined)	111
COc1cc(NC(=O)Cn2cnc3c(sc4nc(C)cc(C)c43)c2=O)cc(OC)c1	98
Cc1cc(C)c2sc(NC(=O)c3ccc(S(=O)(=O)N(C)CC4CCCO4)cc3)nc2c1 (centres undefined)	93
Cn1nc(-c2nnc(-c3ccccc3)o2)c2c1CCN(S(=O)(=O)c1ccc3c(c1)CCC3)C2	108
CCC(CC)C(=O)N1c2ccc(C)cc2C(=C2SC(C(=O)OC)=C(C(=O)OC)S2)C(=S)C1(C)C	107
CCCCOc1ccc(C(=O)NCCCCOc2ccc(C(C)(C)CC)cc2C(C)(C)CC)cc1	108
CCOC(=O)c1c(NC(=O)CSc2nnc(CNC(=O)COc3ccccc3)n2C)sc2c1CCC2	95

(listing goes on)
SMILES	GIV-Gai inh
COc1ccc2oc(=O)c(-c3nc(-c4cc(C)ccc4C)cs3)cc2c1	105
Cc1nnc(N2C(=O)C(=O)/C(=C(/O)c3ccc(Cl)cc3)C2c2cccc(Oc3ccccc3)c2)s1 (centres undefined)	112
CCOC(=O)C1=CN(Cc2ccc(OC)cc2)C=C(C(=O)OCC)C1c1cc(Br)c(O)c(OC)c1	101
CCCCN(C)c1ncnc2c1cnn2-c1ccc(F)cc1	99
CC(=O)OC[C@H]1O[C@@H](Oc2cccc3ccccc23)[C@H](OC(C)=O)[C@@H](OC(C)=O)[C@@H]1OC(C)=O	107
CC(Nc1nc(-c2ccc([N+](=O)[O-])cc2)nc2ccccc12)c1ccccc1 (centres undefined)	106
COc1cc(OC)c(NC(=O)CSc2nc3[nH]ncc3c(=O)n2-c2ccc(Cl)cc2)cc1Cl	103
CCOC(=O)c1[nH]c(C)c(CN(Cc2ccc(C)cc2)C(=O)Nc2ccc(OC)c(OC)c2)c1C	102
COc1ccc2nc(-n3nc(C)c4c3NC(=O)CC4c3ccc(OC)c(O)c3)sc2c1 (centres undefined)	100
COc1ccc(CCNS(=O)(=O)c2cc(-c3nc(C)c(C)s3)sc2C)cc1OC	107
CCOC(=O)c1[nH]c(C)c(CN(Cc2ccc(OC)cc2)S(C)(=O)=O)c1C	101
Nc1c(C(=O)NCc2ccccc2)sc2nc3c(c(-c4cccs4)c12)CCC3	120
CN(CCc1noc(-c2ccc(C(=O)NCc3cccnc3)cc2)n1)C(=O)c1ccccc1	105
